Source: PubChem BioAssay
GLA inh pH 4.5 – inhibitors of human alpha-galactosidase A at pH 4.5 | purified enzyme, 4-MU-alpha-Gal fluorescence, pH 4.5 | activity change, negative = inhibition, % at 105 µM | 230,000 tested, under 10 active; inconclusive = small, poorly fitted or top-dose-only inhibition, or a rising curve; inactive = flat fitted curve, though single readings scatter; no compound was filed as active;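 also: 0% = full activity with enzyme and -100% = basal without enzyme; dose as in the result columns while the protocol names 77 µM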
Rango complex inh – inhibitors of Rango-importin beta complex formation; Q14974; Potency, µM (titrated, usually from 92.2 µM), for inactives: at the top dose inhibition of complex formation; Rango CFP/YFP FRET sensor + importin beta, 45 min; 340,000 tested, 0.031% active; active = rising FRET ratio curve, often small or poorly fitted; inconclusive = mostly compound fluorescence or quenching in the first reads; inactive = flat curves in all reads;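 also: potency is read from the fitted curve at half-maximal effect; 0% = DMSO wells and 100% = buffer wells lacking importin beta; nearly all actives have a fitted effect of over 15% in size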
Target sequence (Q14974 whole entry, looked up): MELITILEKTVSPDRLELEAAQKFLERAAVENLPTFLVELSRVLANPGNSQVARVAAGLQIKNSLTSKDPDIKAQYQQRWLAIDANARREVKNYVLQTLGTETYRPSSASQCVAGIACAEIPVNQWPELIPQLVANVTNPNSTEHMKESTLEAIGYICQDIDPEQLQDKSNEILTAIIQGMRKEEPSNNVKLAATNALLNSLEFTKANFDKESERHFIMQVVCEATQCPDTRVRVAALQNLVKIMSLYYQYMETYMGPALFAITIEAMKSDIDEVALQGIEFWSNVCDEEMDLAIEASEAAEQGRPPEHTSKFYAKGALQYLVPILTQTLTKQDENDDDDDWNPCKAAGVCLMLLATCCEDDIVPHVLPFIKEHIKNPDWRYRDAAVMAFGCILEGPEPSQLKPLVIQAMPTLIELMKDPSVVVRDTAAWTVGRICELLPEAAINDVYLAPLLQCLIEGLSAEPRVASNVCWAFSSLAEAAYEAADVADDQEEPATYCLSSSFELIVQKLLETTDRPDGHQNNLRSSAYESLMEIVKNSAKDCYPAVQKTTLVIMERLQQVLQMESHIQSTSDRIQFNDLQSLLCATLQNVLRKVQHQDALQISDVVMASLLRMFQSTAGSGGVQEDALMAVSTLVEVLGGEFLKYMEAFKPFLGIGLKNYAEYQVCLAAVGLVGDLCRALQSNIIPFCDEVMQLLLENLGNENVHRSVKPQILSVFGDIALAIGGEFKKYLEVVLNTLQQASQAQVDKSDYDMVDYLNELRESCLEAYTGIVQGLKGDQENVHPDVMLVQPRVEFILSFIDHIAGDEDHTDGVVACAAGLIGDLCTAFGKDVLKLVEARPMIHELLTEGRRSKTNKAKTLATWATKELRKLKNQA
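FRET biosensor Rango (snurportin 1 IBB between N-terminal EYFP and C-terminal Cerulean), 50 nM in PBS/1 mM DTT/0.02% Tween-20/0.1% BSA, preincubated 5 min RT with compound; 0.125 microM importin beta added, 45 min RT, CFP/YFP FRET ratio read.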
Rango release inh – inhibitors of RanGTP-induced Rango-importin beta complex dissociation; Biochemical FRET Rango-importin beta, RanGTP-induced dissociation; Potency, µM (highest dose often 46.1 µM), inactives show top-dose activity change, negative = inhibition; 340,000 tested, 0.071% active; active means falling FRET ratio curve, often poorly fitted, with flat reads before Ran was added; inconclusive means other falling curves, or compound fluorescence or quenching; inactive means flat or rising ratio curve;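 also: potency is read from the fitted curve at half-maximal effect; % of control where 0% means no effect; nearly all actives have a fitted effect of over 45% in size; -100% = wells without RanGTP and RCC1; the record marks most hits as doubtful in a second field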
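Recombinant Rango FRET biosensor (EYFP–snurportin 1 IBB–cerulean CFP10) at 0.1 uM premixed with 0.25 uM importin beta in PBS, 1 mM DTT, 0.02% Tween-20, 0.1% BSA. Compound added 5 min; RanGTP-RCC1 (0.6 uM Ran, 2 mM GTP, 0.2 uM RCC1) then triggers release, read at 45 min.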
miR-21 FLuc – raises the signal of a miR-21 reporter; HeLa miR-21 FLuc reporter, luciferase, 48 h; Potency, µM (series often up to 38.3 µM), without a hit: top-dose reporter change, positive = more light; 340,000 tested, under 10 active; active = well fitted rising curve with a large enough effect; inconclusive = small, poorly fitted or top-dose-only effect; inactive = no such curve, though single readings can be large or run the other way;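 also: % of control where 0% means no effect; miR-21 action dims this reporter so a rising signal means less miR-21 action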
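Luminescence from a firefly luciferase reporter carrying a miR-21 binding site downstream, stably expressed under a CMV promoter in HeLa cells that make miR-21 endogenously, reports miRNA modulation after 48 h compound exposure up to approximately 40uM final.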
* = called active by the depositor.

CCN(C(=O)COC(=O)c1ccc(N2C(=O)c3ccccc3C2=O)cc1)C1CCS(=O)(=O)C1 (configuration not stated) was read as GLA inh pH 4.5 -6.6, Rango complex inh 0.1%, Rango release inh -8.5% and miR-21 FLuc 1.3%.
CCOc1ccc(S(=O)(=O)NCCC(=O)Nc2ccncc2)cc1 was read as Rango complex inh 5.0% and Rango release inh 3.3%.
`Cc1ccc(-c2cc(C(=O)N3CCCC3)no2)cc1` gave GLA inh pH 4.5 -1.3, Rango complex inh 1.7%, Rango release inh -4.2% and miR-21 FLuc -1.5%.
Cc1ccc(S(=O)(=O)N[C@H](C(=O)OCn2nnc3ccccc3c2=O)C(C)C)cc1 was read as GLA inh pH 4.5 6.6, Rango complex inh -2.2%, Rango release inh 4.1% and miR-21 FLuc 17.0%.
Screening COC(=O)c1sccc1NC(=O)c1ccncc1 returned GLA inh pH 4.5 2.2, Rango complex inh -0.1%, Rango release inh -1.2% and miR-21 FLuc -12.8%.
For Cc1c(CNCCc2ccc(Cl)cc2)c(C(=O)O)c(C)n1Cc1ccccc1 the results were GLA inh pH 4.5 -1.7, Rango complex inh 0.3%, Rango release inh -4.3% and miR-21 FLuc -1.1%.
Screening COc1ccc(C(=O)C(C)OC(=O)c2cccc(S(=O)(=O)Nc3c(C)n(C)n(-c4ccccc4)c3=O)c2)cc1 (configuration not stated) returned Rango complex inh -0.6% and Rango release inh 2.4%.
For COc1ccc2nc(SCC(=O)Nc3ccc4c(c3)OCCO4)[nH]c2c1 the results were GLA inh pH 4.5 -12.4, Rango complex inh -1.0%, Rango release inh -4.1% and miR-21 FLuc -30.6%.
For C=CCOc1ccc(C=Nc2ccc(OC)cc2)c(O)c1 the results were GLA inh pH 4.5 3.6, Rango complex inh inconclusive, Rango release inh -8.9% and miR-21 FLuc -8.9%.
Cc1ccc2c(CC(=O)N3CCN(S(=O)(=O)c4ccccc4)CC3)coc2c1 was read as Rango complex inh -0.8% and Rango release inh 0.9%.
Screening COc1ccccc1CNC(=O)C(NC(=O)c1ccccc1C)C(C)C (configuration not stated) returned GLA inh pH 4.5 -0.7, Rango complex inh 2.6%, Rango release inh -13.5% and miR-21 FLuc -0.2%.
Screening COc1ccc(OC)c(NC(=O)C2CC2c2ccccc2)c1 (configuration not stated) returned Rango complex inh -1.6%, Rango release inh -10.3% and miR-21 FLuc 0.3%.
`CCC(C)c1ccc(S(=O)(=O)N2CC(=O)Nc3ccccc32)cc1` (configuration not stated) gave GLA inh pH 4.5 -1.0, Rango complex inh -0.9%, Rango release inh -2.1% and miR-21 FLuc -3.4%.
Screening CCn1c2ccccc2c2cc(NC(=O)CSc3nccc(=O)[nH]3)ccc21 returned GLA inh pH 4.5 -25.7, Rango complex inh -0.9%, Rango release inh -14.2% and miR-21 FLuc -0.4%.
For O=C(CSc1n[nH]c(-c2ccc(S(=O)(=O)NC3CCCCC3)cc2)n1)N1CCCC1 the results were GLA inh pH 4.5 -0.4, Rango complex inh -2.7%, Rango release inh 4.6% and miR-21 FLuc 4.3%.
`Nc1nc(N)nc(-c2ccccn2)n1` gave GLA inh pH 4.5 1.5, Rango complex inh 0.8%, Rango release inh 2.5% and miR-21 FLuc -2.9%.
For CC1CN(CC(=O)Nc2cccc(C(=O)Nc3cccc(C(F)(F)F)c3)c2)CC(C)O1 (configuration not stated) the results were GLA inh pH 4.5 -9.0, Rango complex inh -0.2%, Rango release inh -7.6% and miR-21 FLuc 19.4%.
Cn1nc(C(=O)Nc2ccccc2)c2c1-c1ccccc1S(=O)(=O)C2 was read as Rango complex inh -1.0%, Rango release inh -12.1% and miR-21 FLuc -9.1%.
For COc1ccc2c(c1OC)C(=O)N1c3ccccc3SC21 (configuration not stated) the results were GLA inh pH 4.5 6.4, Rango complex inh -1.4%, Rango release inh 1.2% and miR-21 FLuc -52.4%.
O=C(c1ccc(CN2CCOCC2)cc1)N1CCN(Cc2ccccc2)CC1 was read as GLA inh pH 4.5 1.2, Rango complex inh 6.4%, Rango release inh -8.1% and miR-21 FLuc -0.2%.
CCCCCCSc1nsc(NC(=O)CC(C)C)n1 was read as GLA inh pH 4.5 3.7, Rango complex inh -2.9%, Rango release inh -5.0% and miR-21 FLuc -31.1%.
Screening COc1ccc(-n2nc(C(=O)NCC(=O)NCC3COc4ccccc4O3)c3ccccc3c2=O)cc1OC (configuration not stated) returned GLA inh pH 4.5 -9.7, Rango complex inh -3.4%, Rango release inh 17.9% and miR-21 FLuc 17.4%.
Screening Cc1ccc(SCC(=O)Nc2cccnc2)cc1 returned Rango complex inh 2.7% and Rango release inh -3.4%.
Cc1ccc2cc(CN(Cc3cccs3)Cc3nnnn3CC3CCCO3)c(=O)[nH]c2c1 (configuration not stated) was read as GLA inh pH 4.5 -1.2, Rango complex inh 1.3%, Rango release inh -8.5% and miR-21 FLuc -2.3%.
For COC(=O)CN(C#N)c1nc(N(C)C)nc(N(C)C)n1 the results were GLA inh pH 4.5 -5.1, Rango complex inh 5.8%, Rango release inh 0.0% and miR-21 FLuc 3.2%.
Cc1cc(CN(C)C(=O)CC2C(=O)NCCN2CC(c2ccccc2)c2ccccc2)on1 (configuration not stated) was read as GLA inh pH 4.5 5.4, Rango complex inh 0.2%, Rango release inh -8.3% and miR-21 FLuc 4.5%.
For O=S(=O)(NC1CCN(S(=O)(=O)c2c(F)cccc2F)CC1)c1ccc2c(c1)OCCO2 the results were Rango complex inh -2.5% and Rango release inh 10.3%.
`O=C1NC(=O)C2(CCC(C(=O)O)C2)N1` (configuration not stated) gave GLA inh pH 4.5 5.0, Rango complex inh -2.9%, Rango release inh 1.3% and miR-21 FLuc -16.6%.
For COc1ccc(C(=O)Nc2ncc3c(n2)CC(C)CC3=O)cc1 (configuration not stated) the results were GLA inh pH 4.5 -2.0, Rango complex inh 2.3%, Rango release inh 0.1% and miR-21 FLuc -12.2%.
`O=C(c1ccco1)N1CCN(C2c3ccccc3-c3ccccc32)CC1` gave Rango complex inh 0.1%, Rango release inh 34.3% and miR-21 FLuc -4.4%.

Of the compounds above, two have fluorine.
For CC1CN(CC(=O)Nc2cccc(C(=O)Nc3cccc(C(F)(F)F)c3)c2)CC(C)O1 (configuration not stated) the results were GLA inh pH 4.5 -9.0, Rango complex inh -0.2%, Rango release inh -7.6% and miR-21 FLuc 19.4%.
For O=S(=O)(NC1CCN(S(=O)(=O)c2c(F)cccc2F)CC1)c1ccc2c(c1)OCCO2 the results were Rango complex inh -2.5% and Rango release inh 10.3%.

Further compounds.
`CSc1nc(Cc2ccccc2)nc2ccccc12` gave GLA inh pH 4.5 6.7, Rango complex inh 5.4%, Rango release inh -7.0% and miR-21 FLuc -11.3%.
Screening COC(=O)CCN1CCC(C(N)=O)CC1 returned GLA inh pH 4.5 1.1, Rango complex inh -0.1%, Rango release inh -8.9% and miR-21 FLuc -1.5%.
`CC[C@]12c3[nH]c4ccc(OC)cc4c3CCN1C(=O)C(CC(=O)NC/C=C(\C)CCC=C(C)C)C[C@@H]2C(=O)N1CCN(C(=O)C2CC2)CC1` (some centres not stated) gave Rango complex inh 0.4% and Rango release inh -17.5%.
CC(NC(=O)CN1C(=O)NC2(CCCCCC2)C1=O)c1ccccc1Cl (configuration not stated) was read as Rango complex inh 3.6% and Rango release inh 6.8%.
Cc1cc(C(=O)COC(=O)c2ccc([N+](=O)[O-])o2)c(C)n1CC1CCCO1 (configuration not stated) was read as GLA inh pH 4.5 3.8, Rango complex inh -4.2%, Rango release inh 1.4% and miR-21 FLuc 0.4%.
COc1ccccc1CNC(=O)c1c(O)c2cc(OC)c(OC)cc2[nH]c1=O was read as GLA inh pH 4.5 9.5, Rango complex inh 0.5%, Rango release inh 2.1% and miR-21 FLuc -3.2%.
Screening COc1cc(O)cc2occ(-c3ccc(O)cc3)c(=O)c12 returned GLA inh pH 4.5 1.4, Rango complex inh -0.5%, Rango release inh 0.5% and miR-21 FLuc -28.0%.
For Nc1nnc(CC(=O)N/N=C/c2ccccc2OCc2ccccc2F)s1 the results were GLA inh pH 4.5 -19.8, Rango complex inh -0.1%, Rango release inh 9.7% and miR-21 FLuc -2.8%.
`O=C(NCC1CCCO1)c1cc(S(=O)(=O)N2CCOCC2)ccc1Cl` (configuration not stated) gave Rango complex inh 5.6%, Rango release inh 9.9% and miR-21 FLuc -0.1%.
For CCOC(=O)c1ccc(NC(=O)c2c(N)n(C)c(=O)n(C)c2=O)cc1 the results were Rango complex inh -4.8% and Rango release inh 15.6%.
For CNC[C@H]1Oc2c(NC(=O)C3CC3)cccc2C(=O)N([C@H](C)CO)C[C@@H]1C the results were Rango complex inh -0.4% and Rango release inh 1.9%.
For O=C(C1CCCN(c2ncnc3c2nc2n3CCCCC2)C1)N1CCCCC1 (configuration not stated) the results were Rango complex inh 2.5%, Rango release inh -5.1% and miR-21 FLuc 0.1%.
For COc1cccc(CC(NC(C)=O)C(=O)NC2CCN(c3nnnn3-c3ccccc3)CC2)c1 (configuration not stated) the results were GLA inh pH 4.5 10.1, Rango complex inh -2.1%, Rango release inh 22.9% and miR-21 FLuc -0.4%.
For COc1ccc2ccc(OCC(=O)NCC3CCCO3)cc2c1 (configuration not stated) the results were Rango complex inh 0.5% and Rango release inh -1.1%.
For O=C(c1cc2ccccc2s1)N1CCOCC1 the results were GLA inh pH 4.5 -2.5, Rango complex inh 0.5%, Rango release inh 0.7% and miR-21 FLuc -10.4%.
N/C(=N\OC(=O)c1csnn1)c1ccc(C(F)(F)F)cc1 was read as GLA inh pH 4.5 -5.8, Rango complex inh 0.7%, Rango release inh 17.6% and miR-21 FLuc -41.5%.
O=C(Nc1ccc(Cl)cc1C(=O)N1CCCCC1)c1ccco1 was read as Rango complex inh 0.7%, Rango release inh 15.0% and miR-21 FLuc -1.0%.
CC(C)(C)OC(=O)CNC(=O)c1[nH]cnc1C(=O)N[C@@H](Cc1ccccc1)C(=O)OCc1ccccc1 was read as Rango complex inh -2.9%, Rango release inh 1.3% and miR-21 FLuc 3.8%.
Screening COCCN1C(=O)C(=O)/C(=C(/O)c2ccc(C)cc2)C1c1ccccn1 (configuration not stated) returned GLA inh pH 4.5 4.3, Rango complex inh -1.9%, Rango release inh -9.4% and miR-21 FLuc -0.6%.
N#C/C(C(=O)N1CCOCC1)=C1/SC(Cc2ccccc2Cl)C(=O)N1c1ccccc1 (configuration not stated) was read as GLA inh pH 4.5 4.4, Rango complex inh -0.7%, Rango release inh -23.8% and miR-21 FLuc -11.2%.
Screening Cc1[nH]c2ccc(F)cc2c1CCN(Cc1cccnc1)C(=S)Nc1ccccc1 returned GLA inh pH 4.5 1.8, Rango complex inh -5.2%, Rango release inh -18.7% and miR-21 FLuc 21.9%.
For COc1cccc(N2CCN(CC(=O)Nc3nnc(-c4ccccc4)s3)CC2)c1 the results were GLA inh pH 4.5 -15.5, Rango complex inh -2.7%, Rango release inh -5.7% and miR-21 FLuc 23.1%.
`CCOc1ccccc1NC(=O)COC(=O)/C=C/c1cccs1` gave Rango complex inh -1.0% and Rango release inh 10.0%.
`COc1ccc(N(CC(O)Cn2nnc3ccccc32)S(=O)(=O)c2ccc(C)cc2)cc1` (configuration not stated) gave GLA inh pH 4.5 -6.5, Rango complex inh 4.1%, Rango release inh 2.3% and miR-21 FLuc -6.4%.
CC(NC(=O)CCNC(=O)c1ccc(C(C)(C)C)cc1)c1ccccc1 (configuration not stated) was read as Rango complex inh -0.1% and Rango release inh 0.9%.
C=CCn1c(SCc2ccc(C(=O)Nc3nccs3)cc2)nnc1-c1ccc(C)c(Cl)c1 was read as GLA inh pH 4.5 -6.5, Rango complex inh -0.4%, Rango release inh 11.2% and miR-21 FLuc inconclusive.
For CCOc1ccccc1-n1nnnc1SCC(=O)Nc1cc(C)on1 the results were GLA inh pH 4.5 1.1, Rango complex inh 2.9%, Rango release inh 2.4% and miR-21 FLuc 1.4%.
For COCCN(C(=O)c1csnn1)C(C(=O)NC1CCCCC1)c1ccc(C)cc1 (configuration not stated) the results were Rango complex inh -3.7%, Rango release inh -4.3% and miR-21 FLuc -2.9%.
CCO[C@H]1OC(C(=O)Nc2ccccc2)=C[C@@H](C2CC2)[C@@H]1CCCO was read as GLA inh pH 4.5 0.9, Rango complex inh -0.7%, Rango release inh -1.5% and miR-21 FLuc -2.8%.

Not all compounds are listed, so the mix of outcomes need not match the whole.
